# VEEV TC-83 Vero: inhibitors of VEEV TC-83 cytopathic effect, confirmation, Vero cells (AID 588727) | Vero cells, VEEV TC-83 cytopathic effect inhibition; higher % means a stronger effect | inhibition, % at 20 µM; hits with a dose series show IC50 in µM | 350,000 compounds, 0.13% hits; in the data active means a potency from the dose series; inconclusive means inhibition mostly from about 14% at the one dose, without a potency; inactive means the rest, 99 in 100 with inhibition below about 12%; further: strong numbers were not always called active
# H37Rv inhibition: M. tuberculosis growth inhibition, HTS (AID 449762) | M. tuberculosis H37Rv growth inhibition, 7H9 media; higher % means a stronger effect | inhibition, % at 25 µM, or IC50 in µM where a hit was titrated | 330,000 compounds, 0.59% hits; in the data active means a potency from the dose series; inconclusive means inhibition above about 70% without an active follow-up result;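 further: bacterial growth assessed after seven days of incubation; strong numbers were not always called active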
# M. tuberculosis: growth inhibition of non-replicating M. tuberculosis (AID 488890). Mycobacterium tuberculosis non-replicating, growth inhibition; higher % means a stronger effect. one-dose inhibition, % at 25 µM; IC50 in µM for titrated hits. 320,000 compounds, 0.39% hits; in the data active means a potency from the dose series; inconclusive means inhibition mostly from about 82% at the one dose, without a potency; inactive means the rest, 99 in 100 with inhibition below about 76%;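 further: plate controls were DMSO cells for no effect and high antibiotic wells for full effect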
# Starred values were filed as active, the others as inactive; i = inactive; ? = inconclusive; . = not tested or not shown; & = joins results of further samples. An excerpt; count on the stated rates, not on these rows.
1. Cc1cc(-c2nnc(SCC(=O)Nc3nccs3)o2)no1
  VEEV TC-83 Vero: i	H37Rv inhibition: 2.7%	M. tuberculosis: -14.6%

2. CC(=O)NC(c1cccc([N+](=O)[O-])c1)c1ccc2cccnc2c1O (configuration not stated)
  VEEV TC-83 Vero: 6.0%	H37Rv inhibition: -8.2%	M. tuberculosis: -11.6%

3. O=c1[nH]c(=O)n([C@H]2C[C@H](O)[C@@H](CO)O2)cc1C(F)(F)F
  VEEV TC-83 Vero: 6.8%	H37Rv inhibition: -0.7%	M. tuberculosis: 5.6%

4. O=C(On1c(-c2ccccc2)nc2ccccc2c1=O)c1ccco1
  VEEV TC-83 Vero: 0.2%	H37Rv inhibition: 34.8%	M. tuberculosis: ?

5. Oc1c(Cl)cc(CN2CCOCC2)c2cccnc12
  VEEV TC-83 Vero: i	H37Rv inhibition: ?	M. tuberculosis: 2.53µM*

6. CCn1cc(C(=O)N[C@@H](C)C(=O)OC)c(=O)c2cc3c(cc21)OCO3
  VEEV TC-83 Vero: 1.1%	H37Rv inhibition: 0.2%	M. tuberculosis: -10.7%

7. COc1cc(Cc2cnc(N)nc2N)cc(OC)c1OC
  VEEV TC-83 Vero: 3.4%&2.0%	H37Rv inhibition: 2.6%&6.2%	M. tuberculosis: 4.3%&-6.4%

8. COc1ccc(C(=O)CCN2CCc3cc(OC)c(OC)cc3C2)cc1
  VEEV TC-83 Vero: i	H37Rv inhibition: 68.3%	M. tuberculosis: ?

9. COc1cccc(CNCCc2c[nH]c3ccccc23)c1OCc1ccccc1
  VEEV TC-83 Vero: i	H37Rv inhibition: 62.0%	M. tuberculosis: ?

10. CC(C)[C@@]1(NC(=O)[C@@H]2C[C@@H]3c4cccc5[nH]cc(c45)C[C@H]3N(C)C2)O[C@@]2(O)[C@@H]3CCCN3C(=O)[C@H](Cc3ccccc3)N2C1=O
  VEEV TC-83 Vero: i	H37Rv inhibition: 29.2%	M. tuberculosis: 10.9%

11. CCN1CCN(Cc2ccc(NC(=O)c3ccc(C)c(NC(=O)C(=O)c4c[nH]c5ccccc45)c3)cc2C(F)(F)F)CC1
  VEEV TC-83 Vero: i	H37Rv inhibition: ?	M. tuberculosis: ?

12. CC(=O)Oc1ccccc1C(=O)Nc1ncc([N+](=O)[O-])s1
  VEEV TC-83 Vero: .	H37Rv inhibition: 27.2%	M. tuberculosis: ?

13. O=C(O)c1cccnc1
  VEEV TC-83 Vero: 0.7%	H37Rv inhibition: 0.7%	M. tuberculosis: -5.7%

14. COc1ccc(OC)c(NC(=O)Nc2ccc3c(c2)OCO3)c1
  VEEV TC-83 Vero: 8.1%	H37Rv inhibition: -9.3%	M. tuberculosis: 4.6%

15. C[C@]12CC[C@@H]3c4ccc(O)cc4CC[C@H]3[C@@H]1C[C@@H](O)[C@@H]2O
  VEEV TC-83 Vero: 0.7%	H37Rv inhibition: 7.3%	M. tuberculosis: -3.4%

# Four records drawn at random from the list so far, as already listed:
8. COc1ccc(C(=O)CCN2CCc3cc(OC)c(OC)cc3C2)cc1
  VEEV TC-83 Vero: i	H37Rv inhibition: 68.3%	M. tuberculosis: ?

1. Cc1cc(-c2nnc(SCC(=O)Nc3nccs3)o2)no1
  VEEV TC-83 Vero: i	H37Rv inhibition: 2.7%	M. tuberculosis: -14.6%

12. CC(=O)Oc1ccccc1C(=O)Nc1ncc([N+](=O)[O-])s1
  VEEV TC-83 Vero: .	H37Rv inhibition: 27.2%	M. tuberculosis: ?

13. O=C(O)c1cccnc1
  VEEV TC-83 Vero: 0.7%	H37Rv inhibition: 0.7%	M. tuberculosis: -5.7%

# Further compounds follow:
16. CN1CCC(OC(=O)c2cccc(Br)c2)CC1
  VEEV TC-83 Vero: 1.5%	H37Rv inhibition: 8.2%	M. tuberculosis: 1.1%

17. O=C(O)[C@@H](O)[C@H](O)C(=O)O
  VEEV TC-83 Vero: 0.9%	H37Rv inhibition: ?	M. tuberculosis: -0.8%

18. O=C(CSc1ccc2nnc(-c3ccccn3)n2n1)Nc1ccccc1
  VEEV TC-83 Vero: 1.5%	H37Rv inhibition: 1.2%	M. tuberculosis: -0.4%

19. COc1ccc(NC(=O)CC(NCc2ccccn2)C(=O)O)cc1 (configuration not stated)
  VEEV TC-83 Vero: i	H37Rv inhibition: -3.3%	M. tuberculosis: 4.4%

20. Cc1ccc(N=c2c([N+](=O)[O-])nn(-c3ccccc3)n2O)c(C)c1
  VEEV TC-83 Vero: i	H37Rv inhibition: 38.0%	M. tuberculosis: 37.5%

21. CCN1C(=O)/C(=C2/C=Cc3ccccc3N2CC)SC1=S
  VEEV TC-83 Vero: 1.5%	H37Rv inhibition: 4.7%	M. tuberculosis: 11.3%

22. CCn1cc(C(=O)NCc2ccc3c(c2)OCO3)c(=O)c2cc(F)c(N3CCN(C)CC3)cc21
  VEEV TC-83 Vero: 0.1%	H37Rv inhibition: -9.1%	M. tuberculosis: 6.6%

# In the list so far, 3 have fluorine:
3. O=c1[nH]c(=O)n([C@H]2C[C@H](O)[C@@H](CO)O2)cc1C(F)(F)F
  VEEV TC-83 Vero: 6.8%	H37Rv inhibition: -0.7%	M. tuberculosis: 5.6%

11. CCN1CCN(Cc2ccc(NC(=O)c3ccc(C)c(NC(=O)C(=O)c4c[nH]c5ccccc45)c3)cc2C(F)(F)F)CC1
  VEEV TC-83 Vero: i	H37Rv inhibition: ?	M. tuberculosis: ?

22. CCn1cc(C(=O)NCc2ccc3c(c2)OCO3)c(=O)c2cc(F)c(N3CCN(C)CC3)cc21
  VEEV TC-83 Vero: 0.1%	H37Rv inhibition: -9.1%	M. tuberculosis: 6.6%

# Entries of single compounds from above. Order of screens: VEEV TC-83 Vero	H37Rv inhibition	M. tuberculosis
# O=C(CSc1ccc2nnc(-c3ccccn3)n2n1)Nc1ccccc1 across the screens: 1.5%	1.2%	-0.4%
# COc1ccc(NC(=O)CC(NCc2ccccn2)C(=O)O)cc1 (configuration not stated) across the screens: i	-3.3%	4.4%

# Compound activity from PubChem.
